Sa growth inh: S. aureus growth inhibition | S. aureus RN4220 growth, OD600, 20 h, 42 °C; hits give low values | actives 0.53% (n = 170,000) | relative growth, % (concentration not given with the values);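 active = growth at 42 °C up to 50% and 20 or more points under that at 30 °C, or under 10% at both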;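 also: 300 nL library stock went into each well; scaled to the means of positive and negative controls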
HCMV UL50-53 inh: cytomegalovirus nuclear egress complex inhibition; HTRF UL50-UL53 interaction, normalized percent inhibition; inhibition, % (test concentration not listed); actives 0.15% (n = 190,000);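 active = both replicates at 50% or more, plus weaker picks with an unusually low signal ratio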;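 also: stock transfer was 100 nL into about 20 µL; 0% = negative control wells and 100% = wells with untagged competitor protein; inactives centre near -12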
GIV-Gai inh: inhibitors of GIV GBA-motif binding to rat Galpha-i3; P08753; actives 0.42% (n = 210,000); percent of control (FP), % (test concentration not listed); AID 1224905; Galpha-i3/FITC-GIV peptide fluorescence polarization, 90 min; hits give low values; scaled: aluminum fluoride 0%, vehicle 100%;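 active = replicate mean at 85% of control or lower, very high polarization wells dropped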;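 also: wells of about 15 µL received 100 nL stock; the first replicate is given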
Target sequence (P08753 whole entry, looked up): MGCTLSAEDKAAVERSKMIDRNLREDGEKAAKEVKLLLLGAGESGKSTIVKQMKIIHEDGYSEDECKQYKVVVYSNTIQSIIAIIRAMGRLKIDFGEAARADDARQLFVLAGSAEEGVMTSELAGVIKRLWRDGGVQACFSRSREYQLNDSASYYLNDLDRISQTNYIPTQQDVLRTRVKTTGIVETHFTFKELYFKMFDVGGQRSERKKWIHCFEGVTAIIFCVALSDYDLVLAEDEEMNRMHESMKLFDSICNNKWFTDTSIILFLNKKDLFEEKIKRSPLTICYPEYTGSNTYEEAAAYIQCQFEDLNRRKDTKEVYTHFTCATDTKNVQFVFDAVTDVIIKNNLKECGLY
Sa growth inh second temp: further read-out of Sa growth inh, marked with its call; relative growth, %; measured here: growth at 30 °C;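 optical density after 20 h as mean of two plates; 100% = untreated growth and lower means inhibition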
* = called active by the depositor; x = not tested or not shown.

#	canonical_smiles	HCMV UL50-53 inh	Sa growth inh	Sa growth inh second temp	GIV-Gai inh
1	Cc1ccc(-c2csc3ncn(Cc4cc(=O)n5ccsc5n4)c(=O)c23)s1	-56.3	90.5	94.2	x
2	COc1cc2c(cc1OC)CN(C(C)C(=O)NC(C)(C#N)C(C)C)CC2 (stereo unspecified)	-17.7	81.7	92.0	x
3	N#Cc1c(O)c(C=C2C=CC(=O)C=C2)n2ccccc12	-31.5	76.7	89.4	x
4	Cc1cc(C)c(NC(=O)CSc2nncn3c2cc2occc23)c(C)c1	-24.7	91.7	80.9	154.4
5	CN(C(=O)CSc1nc2ccc(NC(=O)CCc3ccccc3)cc2s1)c1ccccc1	-30.5	109.4	95.1	100.2
6	CCN(CC)S(=O)(=O)c1nnc(NC(=O)COc2ccccc2Cl)s1	9.1	99.7	81.3	103.7
7	CC(C)n1[nH]c(=O)c2c1NC(=O)CSC21CCCCC1	-12.9	125.8	87.4	99.7
8	CC(C)CCNC(=O)c1nnc(-c2ccccc2)o1	5.6	99.2	93.6	103.3
9	COc1ccc(-c2nnc(SCC#N)o2)cc1	-17.5	81.1	99.5	99.2
10	Cc1ccc(CC(=O)Nc2ccc3nc(N4CC(C)CC(C)C4)cc(C(=O)O)c3c2)cc1 (stereo unspecified)	-40.7	x	x	114.0
11	COc1ccc(-c2c(C(F)(F)F)oc3cc(OC(=O)c4ccco4)ccc3c2=O)cc1OC	6.5	x	x	97.6
12	Cc1[nH]nc2c1C(c1ccsc1)CC(=O)N2 (stereo unspecified)	15.2	x	x	103.1
13	O=C1c2ccccc2C(O)(c2ccccc2)N1c1ccc2c(c1)OCCO2 (stereo unspecified)	-14.2	131.5	101.2	105.0
14	CCOc1ccc(N2C(=O)CC(Sc3nc(O)c(CC)c(=O)[nH]3)C2=O)cc1 (stereo unspecified)	-7.9	107.3	90.5	108.8
15	CC(C)C(=O)NCc1n[nH]c(=O)c2ccccc12	-31.9	81.4	82.2	99.0
16	CC1CCCC(C)N1C(=O)c1cc2sccc2n1Cc1ccc(F)cc1 (stereo unspecified)	-5.0	91.9	78.6	102.6
17	CCCCOc1ccc(C2C(C#N)=C(N)OC3=C2C(=O)CC(C)(C)C3)cc1OC (stereo unspecified)	-5.9	x	x	101.5
18	CC1CCCCN1CCCNC(=O)c1[nH]c2ccccc2c1Sc1ccc(Cl)cc1 (stereo unspecified)	-14.4	94.2	0.7	105.3
19	CC(C)c1cc(C(=O)O)n[nH]1	-4.7	119.0	81.8	102.5
20	CCCc1cc(=O)[nH]c(SCC(=O)NC2CCCC2)n1	-27.7	102.1	89.0	101.0
21	COC(=O)CC1=CC(SCc2ccccc2F)=Nc2ccccc2N1	-28.0	x	x	105.7
22	CC(C)(C)C1(O)CC(C(F)F)=NN1C(=O)c1ccccc1 (stereo unspecified)	-3.4	53.3	32.8	90.9
23	CC1(C)CC(=O)C2=C(C1)Nc1ccccc1NC2c1cccc(F)c1 (stereo unspecified)	-7.1	x	x	97.3
24	O=C(NC1CC1)c1ccc(Nc2cc(-c3ccc(F)cc3)ncn2)cc1	16.3	x	x	103.8

Copied from the list:
Sa growth inh second temp result of COc1ccc(-c2nnc(SCC#N)o2)cc1 stands at 99.5
Sa growth inh second temp result of N#Cc1c(O)c(C=C2C=CC(=O)C=C2)n2ccccc12 stands at 89.4
Sa growth inh second temp result of Cc1ccc(-c2csc3ncn(Cc4cc(=O)n5ccsc5n4)c(=O)c23)s1 stands at 94.2

The results go on.
#	canonical_smiles	HCMV UL50-53 inh	Sa growth inh	Sa growth inh second temp	GIV-Gai inh
25	Cc1ccc(NC(=O)CCn2c(=O)c3cccn3c3ccccc32)c(Cl)c1	-3.7	85.0	74.2	99.8
26	COC(=O)C1=C(N)OC2=C(C(=O)CC(c3ccccc3)C2)C1c1cccc(Cl)c1Cl (stereo unspecified)	-7.8	x	x	107.6
27	CCOC(=O)c1sc2ncn(CC(=O)Nc3ccc(F)cc3F)c(=O)c2c1C	-6.2	94.8	105.2	108.2
28	Cc1ccc(S(=O)(=O)N2CCN(C(=O)CN3CCOCC3)C2C(C)C)cc1 (stereo unspecified)	-8.2	106.5	74.5	101.1
29	CCCOc1cccc(C(=O)Nc2cc(-c3ccccc3)no2)c1	-27.2	96.8	87.7	95.1
30	CC(C)C[C@@H](NC(=O)[C@H](Cc1ccccc1)NC(=O)c1cnccn1)B(O)O	-41.6	86.5	61.1	101.0
31	COC(=O)Cn1cncn1	-11.1	x	x	95.7
32	Cc1cc(Cl)ccc1OC(=O)c1sccc1C	-6.3	90.2	96.6	x
33	CC(C)(C)c1ccc(CNC(=O)C2CCCN2C(=O)Nc2ccccc2)cc1 (stereo unspecified)	9.6	97.0	101.3	x
34	O=C(Nc1nc2c(s1)CCCC2)c1ccncc1	1.3	104.8	101.0	96.9
35	O=C(c1ccc(Br)cc1)N(c1ccccn1)C1CCCCC1	2.1	111.0	108.3	x
36	CC(=O)Nc1ccc(Nc2ccccc2)cc1	-20.9	98.5	91.5	103.4

Full records from above. Order of screens: HCMV UL50-53 inh | Sa growth inh | Sa growth inh second temp | GIV-Gai inh
CC(=O)Nc1ccc(Nc2ccccc2)cc1 in the list: -20.9 | 98.5 | 91.5 | 103.4
Cc1cc(Cl)ccc1OC(=O)c1sccc1C in the list: -6.3 | 90.2 | 96.6 | x
O=C(c1ccc(Br)cc1)N(c1ccccn1)C1CCCCC1 in the list: 2.1 | 111.0 | 108.3 | x
CCOC(=O)c1sc2ncn(CC(=O)Nc3ccc(F)cc3F)c(=O)c2c1C in the list: -6.2 | 94.8 | 105.2 | 108.2
Cc1ccc(NC(=O)CCn2c(=O)c3cccn3c3ccccc32)c(Cl)c1 in the list: -3.7 | 85.0 | 74.2 | 99.8

The results go on.
#	canonical_smiles	HCMV UL50-53 inh	Sa growth inh	Sa growth inh second temp	GIV-Gai inh
37	CCCCCn1c(Sc2nc3ccccc3c(C)c2C#N)n[nH]c1=O	-5.0	106.4	97.5	106.4
38	Cc1ccc(NC(=O)Cn2c(=O)nc(-c3ccccc3)c3ccccc32)cc1F	x	83.2	90.5	108.5
39	COc1ccc(S(=O)(=O)Nc2c(C)n(C)n(-c3ccccc3)c2=O)cc1C(=O)N1CCCC1	-10.7	x	x	103.3
40	Cc1ccc(NC(=O)Cn2c(=O)ccc3cc(S(=O)(=O)N4CCCC4)ccc32)cc1C	x	95.8	82.8	99.6
41	CC(C)N1C(=O)C(O)(CC(=O)c2ccccc2O)c2ccccc21 (stereo unspecified)	-17.7	86.0	79.0	x
42	CCN(/C=N/c1sc2c(c1C#N)CCCCC2)CC	x	112.9	79.4	103.6
43	O=S(=O)(c1cccc2cccnc12)N1CCN(Cc2ccc3c(c2)OCO3)CC1	-14.8	92.8	90.7	100.5
44	C[N+](C)(CCC#N)Cc1cccc2ccccc12	-5.7	71.0	100.3	x
45	Nc1nc2cc3c(cc2s1)OCCO3	-6.9	85.5	105.3	105.0
46	CCOC(=O)c1c(C)n(C)c2ccc(OCC(O)CN3CCN(CCO)CC3)cc12 (stereo unspecified)	-2.3	99.8	86.4	103.3
47	CS(=O)(=O)Cc1cccc(C(=O)N2CCc3ccccc32)c1	6.2	95.6	95.5	x
48	CC(C)NC(=O)N1CCCC(c2cccc(C(=O)N3CCN(c4ccccn4)CC3)c2)C1 (stereo unspecified)	-27.9	x	x	104.0
49	C=CCNC(=S)N1CCN(C(c2ccccc2)c2ccccc2)CC1	x	112.7	83.8	100.1
50	CCn1cc(-c2n[nH]c(=S)n2C)c2ccccc21	-3.4	106.5	98.1	102.7
51	CCOC(=O)c1ccc(NC(=O)C(C)N(c2ccc(OCC)cc2)S(C)(=O)=O)cc1 (stereo unspecified)	-7.2	98.8	87.6	106.2
52	Cc1ccc(-c2nc3ccccc3n3cc4c(=O)n(C)c(=O)n(C)c4c23)cc1	-21.3	100.7	69.5	104.9
53	O=C(Cc1c[nH]c2ccccc12)OCCOc1ccccc1	-6.4	140.3	93.9	x
54	CCCCNc1nc2c(c(=O)n(Cc3ccccc3)c(=O)n2C)n1C	-34.0	101.1	92.5	102.1
55	COc1cc(NC(=O)C2CCN(c3cnccn3)CC2)cc(OC)c1	-40.2	82.8	87.0	101.0
56	Cc1[nH]c(C)c(S(=O)(=O)N2CCC(C(=O)N3CCc4ccccc43)CC2)c1C(=O)N1CCCCC1	-30.2	x	x	105.4
57	COc1cccc(NC(=O)CSc2ncc(S(=O)(=O)c3ccc(C)c(C)c3)c(=O)[nH]2)c1	-14.0	108.2	85.8	104.3
58	CCC(=O)NC(C)C(c1cccs1)N1CCOCC1 (stereo unspecified)	x	106.4	94.8	106.5
59	O=C(c1ccc2c(c1)N(Cc1ccc(F)cc1)C(=O)c1ccccc1S2(=O)=O)N1CCCCCC1	-0.2	101.3	78.5	102.6
60	COc1ccc(Nc2ncnc3c2cnn3-c2ccccc2)cc1	2.7	97.1	98.7	108.5
61	Cc1ccc(-c2nc(CNC(=O)Nc3cccc(C)c3)c(C)o2)cc1	-27.1	x	x	103.2
62	CC(C)(C)c1cc(C(C)(C)C)c2oc(C(=O)O)cc(=O)c2c1	-9.2	92.4	96.4	106.9
63	N=C1SC2CS(=O)(=O)CC2N1CCc1ccccc1 (stereo unspecified)	-6.8	102.6	82.1	99.0
64	CCOc1ccc(-c2nnc(SCC(=O)Nc3ccc(C)cc3C)o2)cc1	-9.9	99.0	94.6	99.9
65	Cc1ccc(C(=O)c2cn(Cc3ccc(Cl)cc3)c3nc(C)ccc3c2=O)cc1	-43.2	97.0	79.0	122.5
66	Cc1ccc(F)cc1NC(=O)CCc1c(C)nn(-c2ccc(N3CCOCC3)nn2)c1C	x	85.3	97.4	99.6
67	CCn1c(=O)n(CC)c2cc(N3CCCCC3)c(NC(=O)Nc3ccccc3Cl)cc21	x	107.1	84.7	99.5
68	Brc1ccc(-c2cc3n(n2)CCc2nc4ccccc4n2-3)cc1	-7.4	96.0	95.7	x
69	CCn1c2[n+](c3ccccc3c1=O)CCC2	1.4	93.5	99.1	x
70	COCCCN1C(=O)N(c2ccccc2)C(=O)C1CC(=O)Nc1ccc(F)cc1 (stereo unspecified)	-8.3	85.2	90.8	100.3
71	CCOc1cc(C2C(C#N)=C(N)Oc3n[nH]c(C(C)(C)C)c32)ccc1OC(=O)N1CCOCC1 (stereo unspecified)	-28.9	x	x	103.8
72	COc1ccc(-c2nc(Nc3ccc(OC)c(Cl)c3)c3ccccc3n2)cc1	1.4	x	x	111.3

The closing two entries of the part above lead into the next.
#	canonical_smiles	HCMV UL50-53 inh	Sa growth inh	Sa growth inh second temp	GIV-Gai inh
71	CCOc1cc(C2C(C#N)=C(N)Oc3n[nH]c(C(C)(C)C)c32)ccc1OC(=O)N1CCOCC1 (stereo unspecified)	-28.9	x	x	103.8
72	COc1ccc(-c2nc(Nc3ccc(OC)c(Cl)c3)c3ccccc3n2)cc1	1.4	x	x	111.3
73	Cc1cc(/C=C(\C#N)S(C)(=O)=O)c(C)n1-c1ccc(C(F)(F)F)cc1	-0.8	111.5	100.7	101.4
74	CC(C)CCNC(=O)CN1N=C(c2ccc(Cl)cc2)CCC1=O	x	112.1	85.6	100.6
75	CN(C)c1nc(Oc2ccc(=O)n(C)n2)nc(N(C)C)n1	4.0	97.9	89.7	x
76	CCc1c(C)nc2ncnn2c1Sc1ccccc1NC(=O)c1ccc2c(c1)OCO2	-20.3	x	x	102.0
77	CC(/C=C/c1ccccc1)NC(N)=O (stereo unspecified)	-7.2	104.7	78.6	103.8
78	Cc1ccc(-n2c(=O)c3ccc(C(=O)NCc4ccccc4Cl)cc3n(Cc3cccc(F)c3)c2=O)cc1	-11.5	98.2	89.8	104.3
79	CN1CCCN(C(=O)c2ccc(Cl)cc2)CC1	-9.5	100.7	102.3	98.7
80	COc1ccc(C2(C#N)CCOCC2)cc1	-14.2	107.5	85.1	x
81	COC(=O)c1oc2c(c1C)C1(CCC2)SCCS1	6.4	92.2	97.6	99.6
82	Cc1ccc2c(CC(=O)Nc3sc4c(c3C(=O)NCC3CCCO3)CCCC4)coc2c1C (stereo unspecified)	-35.5	x	x	97.8
83	O=C1CC2CCCC(CN1)N2CC(=O)NCc1ccco1 (stereo unspecified)	9.9	84.9	91.9	98.5
84	O=C(CSc1nncn1-c1ccccc1)NCC(F)(F)F	-10.6	70.2	93.8	x
85	Cc1[nH]c(-c2ccc(F)cc2)cc1C(=O)NC1CCCCC1C (stereo unspecified)	-14.8	x	x	108.6
86	CCOC(=O)c1ccc(NC(=O)CN(c2ccc(C)cc2)S(=O)(=O)c2ccc(OC)cc2)cc1	23.5	97.0	98.8	103.1
87	C=CCNC(=O)CC1CCCCC1	0.8	77.7	95.2	x

Bioassay records (PubChem BioAssay)
